# Beta apoptosis = beta cell apoptosis inhibition; INS-1E cytokine-induced death, ATP luminescence, 48 h; percent of positive-control rescue, neutral wells zero; protection from apoptosis, % (no concentration beside the values); actives 0.8% (n = 300,000); AID 435005;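 active = all replicates at 75% or more, or half of them and the mean; inconclusive = half reach 75% but not the mean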;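 also: 0% = cytokine-treated negative control wells and 100% = positive control rescue; higher means more ATP so stronger rescue from cytokine killing; wells of about 40 µL received 100 nL stock; the first replicate is given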
# T cruzi repl = T. cruzi replication inhibition; actives 1.4% (n = 300,000); AID 1885; inhibition, % (no concentration beside the values); T. cruzi beta-gal in NIH3T3, luminescence, 90 h;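 active = mean inhibition across valid replicates above about 55%, limit read from the data; inconclusive = mean below that limit but half or more replicates reach it; inactive = mean below it, under half of replicates reach it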;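 also: signal also drops with host cell toxicity which is not excluded here; 0% = plate median of DMSO wells and 100% = zero luminescence signal; higher percent means less beta-gal luminescence so fewer parasites; stock transfer was 50 nL into about 50 µL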
# LANA-H2A inh = blocks KSHV LANA binding to histone H2A/H2B; Q9QR71; AID 2629; actives 0.6% (n = 320,000); inhibition, % (test concentration not listed); cell-free LANA-H2A/H2B peptide, fluorescence polarization; in the data active = inhibition mostly above about 10%, no sharp cut-off; inactive = mostly below about 6.7%;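 also: stock transfer was 7.5 nL into about 10 µL; 0% = median of vehicle wells and 100% = median of positive control wells; one replicate is shown; the record names a cut of 25% in any replicate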
# A1 inh = inhibitors of the anti-apoptotic protein A1, read as caspase activation | MEF A1-2A-BIM cells, Caspase-Glo 3/7 luminescence, 3 h; percent of clofoctol response, vehicle zero | actives 0.066% (n = 330,000) | AID 2462 | caspase activation, % (test concentration not listed);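 active = over half of replicate activation scores above 10%, or exactly half above 10 with the replicate mean above 10; inconclusive = replicate mean below 10 yet half the replicates above 10; inactive = over half of replicates below 10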;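 also: wells of about 30 µL received 50 nL stock; many hits fall short of the cut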
# Ecoli rRNA inh = inhibitors of bacterial rRNA selective over humanized ribosomes | E. coli WT GFP vs humanized-ribosome RFP mutants, fluorescence, 24 h; active compounds read low; DMSO median 0, no signal -100 | GFP signal change (wild-type ribosome), % (no concentration beside the values) | actives 1.6% (n = 350,000) | AID 720706;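 active = significant combined selectivity score with lowered wild-type GFP, culture density cut under 30%, mutant RFP and density less affected; inactive = any of these conditions unmet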; also: one replicate is shown; some compounds called inactive have numbers as strong as hits
# B2AR ag = agonists of human beta-2 adrenergic receptor inducing internalization. P07550. Am2.2-beta2AR cells, FAP receptor internalization, flow cytometry; reference of the scale not given here. response, % (test concentration not listed). actives 0.43% (n = 340,000);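 active = response above a set limit, near 3 SD of response in nonfluorescent compounds, cut at about 42% in these data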;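 also: stock transfer was 100 nL into about 11 µL; a reference agonist was the positive control; negative values mostly stem from fluorescent compounds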
# Target sequence (P07550 whole entry, looked up): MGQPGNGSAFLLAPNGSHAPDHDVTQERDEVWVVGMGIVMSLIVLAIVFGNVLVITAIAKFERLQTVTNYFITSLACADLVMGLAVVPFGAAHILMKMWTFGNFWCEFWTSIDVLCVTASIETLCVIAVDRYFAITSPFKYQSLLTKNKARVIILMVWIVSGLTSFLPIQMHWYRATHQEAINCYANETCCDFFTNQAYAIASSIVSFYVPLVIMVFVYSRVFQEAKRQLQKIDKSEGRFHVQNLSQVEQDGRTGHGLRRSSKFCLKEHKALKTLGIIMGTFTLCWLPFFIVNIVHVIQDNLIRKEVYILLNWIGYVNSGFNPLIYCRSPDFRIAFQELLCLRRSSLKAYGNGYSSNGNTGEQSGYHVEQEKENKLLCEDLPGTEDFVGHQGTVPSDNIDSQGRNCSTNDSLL
# Calb FLC = affects C. albicans growth with fluconazole | AID 1979 | actives 0.57% (n = 300,000) | growth inhibition, % (test concentration not listed) | C. albicans CaCi-2 (fluconazole-resistant clinical isolate) + fluconazole, Alamar Blue growth, 48 h;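 active = most replicates above 75%; inconclusive = exactly half above 75%; inactive = most below 75%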;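 also: all wells also contain fluconazole at 8 µg/ml as a sub-toxic cotreatment; 0% = median of DMSO wells and 100% = median of geldanamycin control wells; wells of about 8 µL received 7.5 nL stock; the first replicate is given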
# ALR H2O2 inh = blocks human ALR sulfhydryl oxidase activity. purified ALR, DTT oxidation, H2O2 HRP-luminol luminescence. inhibition, % (test concentration not listed). actives 3.8% (n = 290,000);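 active = mean and each replicate at 75% or more; inconclusive = only one of the two met; inactive = neither met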;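 also: stock transfer was 7.5 nL into about 7.5 µL; 0% = neutral wells and 100% = wells with inactivated enzyme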
# Target sequence (P55789 whole entry, looked up): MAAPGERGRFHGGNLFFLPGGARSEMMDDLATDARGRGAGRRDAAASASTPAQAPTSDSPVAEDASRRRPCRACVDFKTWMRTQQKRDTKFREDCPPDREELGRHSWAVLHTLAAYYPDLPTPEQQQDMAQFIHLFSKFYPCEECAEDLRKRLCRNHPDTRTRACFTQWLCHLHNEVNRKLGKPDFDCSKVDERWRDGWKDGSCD
# Ecoli rRNA inh OD600 = recorded beside Ecoli rRNA inh, whose call it bears; OD600 change, %; measured here: OD600 growth;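 optical density of the mix in the first replicate; 0 = DMSO median and -100 = no signal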
# Ecoli rRNA inh RFP = also measured in Ecoli rRNA inh; calls as there; RFP signal change, %; measured here: RFP humanized mutant strains;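 first replicate; 0 = DMSO median and -100 = no signal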
# Numbers without * were called inactive; ? = inconclusive; . = not tested or not shown.
SMILES,Beta apoptosis,T cruzi repl,LANA-H2A inh,A1 inh,Ecoli rRNA inh,Ecoli rRNA inh OD600,Ecoli rRNA inh RFP,B2AR ag,Calb FLC,ALR H2O2 inh
CNC(=O)CSc1nnc(-c2ccco2)n1-c1cccc(C)c1,-7,0,-7.2,1.5,10,7,-5.2,-4,2,-6
CCc1ccc(C(=O)COC(=O)CNC(=O)CNC(=O)Cc2ccccc2)cc1,-3,-1,7.1,0.4,.,.,.,-3,-1,-2
CCNC(=O)/C(C#N)=C/c1c(N2CC(C)OC(C)C2)nc2ccccn2c1=O (configuration not stated),-2,10,4.4,-0.1,.,.,.,-18,20,-3
CN(C(=O)c1cccc(NC(=O)c2cccs2)c1)c1ccccc1,5,-7,-1.9,0.4,-4,-34,-0.1,-9,-15,2
CC(=O)Nc1ccc(CN2CCN(CC=C(C)C)C(CCO)C2)cc1 (configuration not stated),-5,-10,-3.6,0.7,-26,-34,-15,-3,-2,-9
Cc1nn(C(C)C(=O)NCC2CCCO2)c(C)c1[N+](=O)[O-] (configuration not stated),-7,6,-0.6,0.5,11,9,1.9,2,-11,.
CSc1ccc(CN(C)Cc2nc3cc(C(F)(F)F)ccc3c(=O)[nH]2)cc1,-3,12,-0.2,-0.3,-18,-7,0.4,3,0,-20
Cc1ccc(-n2nc3c(c2NC(=O)CC(C)C)CS(=O)(=O)C3)c(C)c1,-2,-5,0.2,-0.6,24,14,4.2,2,0,-8
CCn1c(C(C)NS(=O)(=O)c2ccc(Cl)cc2)n[nH]c1=S (configuration not stated),4,-8,-1.2,-0.1,5,3,-1.7,-5,3,6
O=C1NC(=S)N(c2cccc(Cl)c2)C12CCCCC2,3,7,-0.2,0.4,.,.,.,-3,-2,-6
O=C(CC1CCCCC1)NCc1ccc(F)cc1,.,14,1.1,0.6,16,17,2.7,0,-23,8
CCC(C)(C)N=C(NC#N)Nc1cccnc1,-5,-3,-0.7,1.1,.,.,.,.,.,-10
CCC(C)NC(=O)C1c2ccccc2C(=O)N1Cc1cc(OC)ccc1OC (configuration not stated),-6,1,4.9,0.0,.,.,.,-6,-19,8
CCOc1cc(C)c(S(=O)(=O)Nc2ccc(F)cc2)cc1C,10,13,-2.4,-0.2,.,.,.,-16,-11,-17
CCOC(=O)Cc1c(C)nc2cc(-c3ccc(Cl)cc3)[nH]n2c1=O,4,7,2.5,0.6,.,.,.,-3,13,-17
CCOC(=O)Cn1c(=O)oc2cc(S(=O)(=O)N3CCN(C(=O)c4ccco4)CC3)ccc21,-3,-24,4.7,1.1,8,17,-1.6,-1,13,19
CCOC(=O)C(Cc1ccccc1)C(=O)Nc1ccccc1C (configuration not stated),-1,-3,6.8,0.0,.,.,.,7,?,0
COc1ccc2oc(=O)c(C(=O)N3CCc4ccccc43)cc2c1,-3,-6,-0.3,0.4,.,.,.,2,-13,-1
Cc1ccccc1OCC(O)Cn1c(NCCN(C)C)nc2c1c(=O)n(C)c(=O)n2C (configuration not stated),.,5,-0.2,1.2,5,3,-0.5,4,-8,50
O=C(NCCc1ccccc1)C1CCN(S(=O)(=O)c2cccc3nsnc23)CC1,-2,0,-1.0,-0.5,.,.,.,0,-2,-7
CCOC(=O)c1c(CSc2ccc(C)cc2)oc2ccc(O)cc12,-7,6,-4.7,0.7,.,.,.,-5,-10,20
O=C(CSCC(=O)NC1CCCC1)Nc1ccccc1,0,-14,19,0.1,8,9,-3.0,-4,1,-14
O=C(O)CC(C(=O)Nc1ccc(Cl)cc1)N1CCCCCC1 (configuration not stated),-3,2,1.8,0.4,1,9,-2.3,-2,5,18
C=CCn1c(NCc2cc(C)ccc2O)nc2ccccc21,7,1,2.0,0.3,-14,-34,5.3,-12,16,98*
CSc1ccc(C2Nc3ccccc3-c3cc(C)nn32)cc1 (configuration not stated),14,-28,-0.7,0.0,.,.,.,0,1,0
COc1cccc(NC(=O)N2CCCCCC2)c1,0,-6,-1.4,-0.9,8,10,0.9,-5,1,-14
Cc1ccc(CN(C)C(=O)CC2C(=O)NCCN2CC2CCCCC2)cc1 (configuration not stated),-7,9,-1.8,0.2,6,-4,3.3,3,-18,-5
Cc1cccc(OCC(=O)NNC(=O)Cn2c(=O)cnc3ccccc32)c1,.,-7,1.2,0.0,11,14,0.1,1,0,3
Cc1cc(C)cc(NC(=S)N2CCC(N(C)CC3CCCO3)CC2)c1 (configuration not stated),-6,8,-2.0,-0.2,11,2,-5.3,3,2,-2
Cc1nc2ncnn2c(C)c1CCC(=O)Oc1ccccc1,0,-11,-0.4,0.8,.,.,.,-6,-7,-1
C/C(=N/Nc1ccc(F)cc1)c1ccc(Cl)s1,1,-8,.,0.9,11,3,2.2,-1,-12,.
C=CCNc1nnnc2c1sc1nc(N3CCOCC3)c3c(c12)CCCC3,13,13,-2.7,0.1,0,4,5.4,-8,-5,-7
CCN1CCN(C(CNS(=O)(=O)c2ccccc2)c2cccnc2)CC1 (configuration not stated),7,25,-2.4,-0.4,0,-1,-0.4,7,0,-6
C=CCOc1ccc(C2NC(=O)c3ccccc3O2)cc1OCC (configuration not stated),-1,5,-3.5,0.1,14,13,2.9,0,12,-2
Cc1c(NC(=S)N/N=C/c2cc([N+](=O)[O-])ccc2O)c(=O)n(-c2ccccc2)n1C,21,18,4.4,-1.1,-22*,-6.5*,-1.8*,5,5,63
C=CCN(CC=C)S(=O)(=O)c1ccc(C(=O)Nc2nnc(COC)o2)cc1,1,-27,1.0,-0.5,-41,-62,-2.6,0,114*,?
C#CCOC(=O)c1ccc(-n2cncn2)nc1,3,3,-1.0,0.1,.,.,.,8,-3,-11
Cc1cccc(N(CC(=O)N2CCCC2)S(=O)(=O)c2ccccc2)c1,.,-3,1.4,1.6,.,.,.,0,4,-7
O=C(CCSc1ccc(Cl)cc1)N1CCN(c2ccc(O)cc2)CC1,0,63*,-1.0,0.8,-30,-33,-0.7,-6,0,100*
COCCN(C(=O)COC(=O)c1cccs1)c1c(N)n(Cc2ccccc2)c(=O)[nH]c1=O,-6,-17,0.2,-0.6,-1,8,-2.8,-8,-2,-10

# One compound at a time, as listed above.
# `CCOC(=O)Cn1c(=O)oc2cc(S(=O)(=O)N3CCN(C(=O)c4ccco4)CC3)ccc21` reads Beta apoptosis = -3; T cruzi repl = -24; LANA-H2A inh = 4.7; A1 inh = 1.1; Ecoli rRNA inh = 8; Ecoli rRNA inh OD600 = 17; Ecoli rRNA inh RFP = -1.6; B2AR ag = -1; Calb FLC = 13; ALR H2O2 inh = 19
# `CCOC(=O)c1c(CSc2ccc(C)cc2)oc2ccc(O)cc12` reads Beta apoptosis = -7; T cruzi repl = 6; LANA-H2A inh = -4.7; A1 inh = 0.7; Ecoli rRNA inh = .; Ecoli rRNA inh OD600 = .; Ecoli rRNA inh RFP = .; B2AR ag = -5; Calb FLC = -10; ALR H2O2 inh = 20

# New compounds follow
SMILES,Beta apoptosis,T cruzi repl,LANA-H2A inh,A1 inh,Ecoli rRNA inh,Ecoli rRNA inh OD600,Ecoli rRNA inh RFP,B2AR ag,Calb FLC,ALR H2O2 inh
COc1ccc(N(CC(=O)N2CCN(c3ccccc3)CC2)S(=O)(=O)c2ccc(C)cc2)cc1,-1,-2,4.1,2.0,-2,-10,-0.1,-6,-9,.
CC12CCC(=O)N1C(C(=O)Nc1cccc(S(=O)(=O)N3CCCCCC3)c1)CS2 (configuration not stated),-5,1,5.0,-0.4,-1,2,-4.0,7,16,-8
O=C(NCc1ccccc1)c1ccc(CS(=O)(=O)c2ccc(Br)cc2)o1,0,1,-1.2,0.3,-1,5,-1.4,0,22,0
O=[N+]([O-])c1ccccc1S(=O)(=O)n1nnc2ccccc21,-9,-3,0.4,0.3,.,.,.,0,-6,.
O=C(COc1ccc(S(=O)(=O)NC2CCCCC2)cc1)NCCC1=CCCCC1,-10,14,-1.2,0.7,.,.,.,0,-4,-4
CCC(Oc1ccccc1)C(=O)N1CC(C)CC(C)C1 (configuration not stated),2,-6,4.0,-0.6,.,.,.,1,-3,0
CCOC(=O)C1(Cc2cccc(Cl)c2)CCCN(C(=O)c2cccnc2)C1 (configuration not stated),1,-8,4.7,-0.2,-10,-16,-1.3,1,-4,-1
CCC(=O)Nc1ccc(S(=O)(=O)Nc2ccc(Cl)nn2)cc1,-5,-8,-3.1,-0.1,5,3,-1.5,-1,19,-7
COc1ccc(C(=O)Cn2c(C)nc([N+](=O)[O-])c2Br)cc1,0,-4,1.0,0.2,-35*,-12*,6.7*,6,-11,1
O=C1c2ccccc2C(=O)N1Cc1ccccc1F,-3,4,-6.3,0.4,6,5,-0.5,-3,-7,.
C#CCOCCOCCOCCNc1nc(N2CCN(C(=O)[C@H](CCCCN)n3cc([C@@H](N)CC(C)C)nn3)CC2)nc(N2CCN(C(=O)[C@H](CCCCN)n3cc([C@@H](N)CC(C)C)nn3)CC2)n1,-1,-8,-2.9,0.1,.,.,.,4,9,-17
O=C(O)c1nc(N2CCCCC2)ncc1Cl,0,-3,-3.2,-0.2,.,.,.,-6,0,0
Clc1ccc(CNc2ccc(CNc3ncn[nH]3)cc2)cc1,-1,4,3.0,0.0,.,.,.,0,-3,2
COc1ccc(NC(=O)N(C)C[C@H]2Oc3ccc(NS(=O)(=O)c4c(C)noc4C)cc3C(=O)N([C@H](C)CO)C[C@@H]2C)cc1,-1,.,-6.8,0.0,9,3,0.5,-1,.,0
COC(C(=O)Nc1ccnn1C1CCN(Cc2ccc(CO)o2)CC1)c1ccccc1 (configuration not stated),-4,-13,-3.9,0.0,11,8,0.6,5,-3,-5
Clc1ccc(/C=N/Nc2ncnc3nc[nH]c23)cc1,-2,-4,-5.8,-4.1,0,24,-7.9,-2,10,93*
Cc1nc(SCC(=O)N2CCOCC2)c2c(=O)n(C)c(=O)n(C)c2n1,-1,11,10,-0.1,4,6,8.0,1,4,-2
Cc1ccccc1NP(=O)(c1ccccc1)c1nc2ccccc2s1 (configuration not stated),0,-9,-13,0.1,-34,-35,2.8,-6,-23,-13
Cc1ccc(C(=O)CN2C(=O)C(=O)N(Cc3ccccc3)C2=O)cc1,-4,-2,2.3,0.2,14,20,2.9,2,-10,4
COc1cc(-n2c(C)nc3cc(C(=O)NCc4ccco4)ccc32)cc(OC)c1OC,1,5,-0.8,0.9,.,.,.,-6,-9,.
CCCCCCC1CC(CSc2ncn[nH]2)OC1=O (configuration not stated),-1,-17,0.6,-0.2,.,.,.,6,-1,1
COc1ccc(-c2ccc([C@H]3[C@@H]4C=CCC[C@@]4(C)C(=O)N3Cc3ccccc3)c(F)c2)cc1OC,25,67*,-0.5,-0.5,12,12,0.6,10,-1,.
O=C(O)c1cccc(S(=O)(=O)Nc2ccc(Oc3ccccc3)cc2)c1,-2,.,-2.2,-0.8,.,.,.,14,.,42
Cc1cccc(N2C(=O)CC(Sc3ncn[nH]3)C2=O)c1 (configuration not stated),5,4,-6.9,-1.9,10,12,1.9,2,0,2
C=CCNC(=O)c1onc(CSc2nc3ccccc3[nH]2)c1C(=O)NCC=C,-6,-2,-9.0,0.5,-11,1,-0.5,-8,-4,6

# Bioassay records from PubChem.

# The list is partial; rates above refer to the full screens.
